Compound activity as filed in PubChem.
GIRK2 act: activators of human GIRK2 potassium channels; G protein-activated inward rectifier potassium channel 2 (Homo sapiens), P48051; calls only for hits at 25 µM; 63,000 tested, 0.05% active; HEK293-GIRK2 thallium flux, Thallos fluorescence;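 active means among the strongest 0.2% of first-round signals and kept after retests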;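 further: first round at about 10 µM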
Target sequence (P48051 whole entry, looked up): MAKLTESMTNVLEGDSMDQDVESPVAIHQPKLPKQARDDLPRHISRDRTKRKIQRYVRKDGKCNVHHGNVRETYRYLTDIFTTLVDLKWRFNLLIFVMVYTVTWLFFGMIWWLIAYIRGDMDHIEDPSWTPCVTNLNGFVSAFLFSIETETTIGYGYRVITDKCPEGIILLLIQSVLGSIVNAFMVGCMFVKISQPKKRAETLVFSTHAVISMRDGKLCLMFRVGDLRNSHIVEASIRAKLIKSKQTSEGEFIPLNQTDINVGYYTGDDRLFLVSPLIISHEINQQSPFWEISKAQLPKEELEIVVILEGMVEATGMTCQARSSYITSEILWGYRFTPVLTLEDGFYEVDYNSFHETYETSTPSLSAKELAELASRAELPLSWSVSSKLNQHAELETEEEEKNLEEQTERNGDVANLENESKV
Calls only; i = inactive. These rows are one share of the data, so the mix of outcomes need not match the whole.

GIRK2 act,compound
i,COC(=O)c1ccc(NC(=O)C(=O)NCCC2=CCCCC2)cc1
i,C=C[C@@]12COC(=O)C(=C)[C@@H]1[C@@H](O)[C@H](C(=C)C(=O)OC)[C@@H](O)C2
i,COCCN1COc2ccc3c(=O)c(-c4ccc(OC)cc4)coc3c2C1
i,CC(=O)N1CCN(S(=O)(=O)c2cccc(C(=O)NCc3ccccn3)c2)CC1
i,CCCOc1cccc(C2c3c(oc4ccccc4c3=O)C(=O)N2CCCN(CC)CC)c1 (centres undefined)
i,Cc1ccc2[nH]c3c(=O)n(CCC(=O)NC(C)CCc4ccccc4)cnc3c2c1 (centres undefined)
i,O=C(O)CNC(=O)COc1ccc(-c2ccccc2)cc1Br
i,COc1ccc(NC(=O)CC2C(=O)Nc3c(C)c(-c4ccc(Cl)cc4)nn32)cc1Cl (centres undefined)
i,COCC(=O)Nc1cnc(N2CCOCC2)nc1
i,CCOC(=O)c1ccc(Nc2nnc(-c3sc4nc5n(c(=O)c4c3C)CCC5)s2)cc1
i,COc1ccc(S(=O)(=O)N2CCCc3cc(NS(=O)(=O)c4ccccc4Cl)ccc32)cc1
i,COc1cc(NC(=O)CSc2nc3cc(-c4ccccc4)sc3c(=O)n2C)cc(OC)c1
i,Clc1cc(Cl)c2nc(-c3ccccc3)cn2c1
i,O=C(c1ccccc1Br)N1CCN(CC(O)c2cccs2)CC1 (centres undefined)
i,CCCn1c(=O)c2cc(Cl)ccc2n2c(SCC(=O)Nc3ccc(C(C)=O)cc3)nnc12
i,O=S(=O)(Cc1cc(F)cc(F)c1)N1CCOC(c2ccccc2)C1 (centres undefined)
i,CCS(=O)(=O)c1ccc(-c2nnc(NC(=O)c3ccc4nsnc4c3)o2)cc1
i,C#CCOCC1CCCN(S(=O)(=O)Cc2ccccc2)C1 (centres undefined)
i,COc1cccc(/C=C2\Oc3c(ccc4c3CN(Cc3cccs3)CO4)C2=O)c1OC
i,O=C(Nc1nc(-c2ccc(Cl)cc2)cs1)c1cccc(S(=O)(=O)N2CCCC2)c1
i,CCSc1nnc(NC(=O)Cn2nc(C)cc2C)s1
i,CCOc1cc(/C=C2\SC(=S)N(c3ccccc3Br)C2=O)ccc1O
i,CCOC(=O)Cc1csc(NC(=O)c2cc(=O)c(OCc3ccc(F)cc3)cn2C)n1
i,O=C(c1ccc2nc[nH]c2c1)N1CCC2(CCc3ccccc3O2)CC1
i,O=C(NCc1ccccc1Cl)c1cn(CC(O)c2cccs2)nn1 (centres undefined)
i,CN(c1ccc2c(c1)OCO2)S(=O)(=O)c1ccsc1-c1nc(-c2ccccc2Cl)no1
i,COc1ccc(Cc2nnc(C3CCN(C(=O)C(C)(C)C)CC3)s2)cc1
i,O=C(CSc1nccn1Cc1ccco1)NC1CCCCC1
i,COc1ccc(C(=O)/C=C/c2cccc(OC(=O)C3CC3)c2)cc1
i,CCCCNc1c(C(=O)OCC)c(=O)[nH]c2cc(Cl)ccc12
i,CCOCCCn1c(C)c(C)n2c3c(=O)n(Cc4ccc(Cl)cc4)c(=O)n(C)c3nc12
i,CCCCCCCCCCCCCCCC(=O)NC[C@@H](C)O
i,COC(=O)c1sccc1S(=O)(=O)NCCC(O)c1ccoc1 (centres undefined)
i,COc1ccc(/C=C2\Oc3cc(OC(=O)CCCCl)ccc3C2=O)c(OC)c1
i,COc1ccc(CNS(=O)(=O)CCNC(=O)c2ccc3c(c2)OCO3)cc1
i,O=C(NCC1CCN(C(=O)Oc2ccccc2)CC1)c1ccc2c(c1)OCO2
i,Cc1cn2c3c(=O)n(Cc4cccc5ccccc45)c(=O)n(C)c3nc2n1C(C)C
i,Cc1cc(NC(=O)Cn2c(=O)n(Cc3ccccc3)c(=O)c3ccccc32)no1
i,COc1cc(S(=O)(=O)N2CCN(c3ccccc3)CC2)ccc1Cl
i,COC(=O)c1ccc(CN2CC(c3nc(C4CC4)no3)C2)o1
i,CCn1c(SCC(=O)NCc2ccccc2)nc2c(-c3ccccc3)c[nH]c2c1=O
i,Cc1cccc(-c2nsc3c(=O)n(CC(=O)NCc4ccccc4)cnc23)c1
i,CCCCCOC(=O)CSc1nc2c(c(=O)n(Cc3ccccc3)c(=O)n2C)n1C
i,COc1nn(C)cc1C(=O)Nc1ccc(C(=O)Nc2c(C)n(C)n(-c3ccccc3)c2=O)cc1
i,Cc1ccc(NC(=O)Cn2c(C)cc(C)c(C#N)c2=O)c(Br)c1
i,CSc1ccc(CNC(=O)Cn2nc3c(N4CC(C)CC(C)C4)nccn3c2=O)cc1 (centres undefined)
i,CCOC(=O)CCC(=O)NCCC1CCCCN1S(=O)(=O)c1ccc(C)cc1 (centres undefined)
i,NCc1ccc(-c2nc(-c3ccc(Cl)c(O)c3)c(-c3ccncc3)[nH]2)cc1
i,Cn1c(C(F)(F)F)nn(CCNS(=O)(=O)CCN2C(=O)CCCC2=O)c1=O
i,COc1ccc(OCc2noc(CNS(=O)(=O)c3ccc4c(c3)CCCC4)n2)cc1
i,O=C(c1ccc(F)cc1Cl)N1CCOC(c2cc(Cl)cc(Cl)c2)C1 (centres undefined)
i,COc1ccccc1N1CCN(C(=O)CNS(=O)(=O)c2cccc(C(F)(F)F)c2)CC1
i,N#C/C(C(=O)c1c[nH]c2ccccc12)=C1\SC(Cc2ccccc2)C(=O)N1c1ccccc1 (centres undefined)
i,C=CCNc1oc(-c2ccc(S(=O)(=O)N(CC)CC)cc2)nc1C#N
i,COc1ccc(OC)c(-c2cc(C(=O)NCC3(c4cccs4)CC3)n(C)n2)c1
i,COc1ccccc1-c1nnc(NC(=O)c2ccc(C(C)=O)cc2)o1
i,Cc1cc(C)c2sc(N3CCN(C(=O)Nc4ccc(F)cc4)CC3)nc2c1
i,COCCn1c(C(=O)N2CCN(c3ccccc3F)CC2)cc2c(=O)n(C)c(=O)n(C)c21
i,O=C(NCc1ccccc1Cl)C1=NS(=O)(=O)c2ccccc2N1
i,COc1nc2ccccc2nc1SCC(=O)NCc1ccco1

Pulled by compound from the entries so far (7):
GIRK2 act,compound
i,CCS(=O)(=O)c1ccc(-c2nnc(NC(=O)c3ccc4nsnc4c3)o2)cc1
i,Clc1cc(Cl)c2nc(-c3ccccc3)cn2c1
i,O=C(NCC1CCN(C(=O)Oc2ccccc2)CC1)c1ccc2c(c1)OCO2
i,NCc1ccc(-c2nc(-c3ccc(Cl)c(O)c3)c(-c3ccncc3)[nH]2)cc1
i,CCOCCCn1c(C)c(C)n2c3c(=O)n(Cc4ccc(Cl)cc4)c(=O)n(C)c3nc12
i,COC(=O)c1sccc1S(=O)(=O)NCCC(O)c1ccoc1 (centres undefined)
i,O=C(O)CNC(=O)COc1ccc(-c2ccccc2)cc1Br

Next section.
GIRK2 act,compound
i,Cn1cc(CC(=O)Nc2ccc(CC(=O)NCC(F)(F)F)cc2)c2ccccc21
i,O=C(Nc1nnc(Cc2ccccc2)o1)c1cnccn1
i,O=C(C1CCCCC1)N1CCN(c2ncnc3c2nnn3-c2ccc(Cl)cc2)CC1
i,COc1ccc(NC(=O)CSc2nnc(-c3cccnc3)o2)c(OC)c1
i,Cc1noc(C2CN(C(=O)c3cc(-c4ccc(F)cc4)nn3C)C2)n1
i,Cc1c(Cl)ccc2c(=O)c3c([nH]c12)CCN(CC(=O)Nc1ccc(F)c(Cl)c1)C3
i,Cc1c(Cl)cccc1NC(=O)Cn1cccc(S(=O)(=O)N2CCCC2)c1=O
i,O=C(NCc1cccc(Cl)c1)c1nc(-c2nc(-c3ccncc3)no2)cs1
i,Cn1nnnc1SCC(=O)NCCN1CCN(S(C)(=O)=O)CC1
i,CS(=O)(=O)Oc1ccc2c(c1)O/C(=C\c1ccc(F)cc1)C2=O
i,CC1(C)OCC2(CO1)CN(S(=O)(=O)c1ccc(Br)s1)C2
i,COc1ccc2cc(CNc3ccccc3)c(=O)n(CC(=O)NCc3ccccc3)c2c1
i,C/C=C/[C@@H]1C=C[C@@H]2C[C@H](C)CC[C@H]2[C@]1(C)C(O)=C1C(=O)[C@H](CO)N(C)C1=O
i,Cc1ccc(NC(=O)Nc2ccc3c(c2)CCCN3C(=O)C2CC2)cc1
i,NS(=O)(=O)c1ccc(C(=O)NCCn2ncccc2=O)cc1
i,O=C(c1ccc([N+](=O)[O-])o1)N(CCN1CCOCC1)c1nc2ccccc2s1
i,Cc1csc(SCC2CCN(C(=O)c3ccc(F)cc3F)CC2)n1
i,Cc1cc2c(=O)n(Cc3ccco3)c(SCC(=O)Nc3ccccc3Cl)nc2s1
i,Cc1cc(N2C(=O)CCS2(=O)=O)ccc1S(=O)(=O)Nc1cccc(C(F)(F)F)c1
i,CC(=O)c1ccc(NC(=O)C2=Cc3cc(Br)ccc3OC=C2)cc1
i,COc1ccc(-c2coc3c4c(ccc3c2=O)OCN(C2CCN(Cc3ccccc3)CC2)C4)cc1
i,COc1ccccc1C(=O)N1CCN(c2oc(-c3ccc(Cl)cc3)nc2C#N)CC1
i,COc1ccc(N2C(=O)C3N=NN(CC(=O)Nc4cccc(C)c4C)C3C2=O)cc1 (centres undefined)
i,COC(=O)c1ccc(NC(=O)CSc2cc(NCc3ccc(Cl)cc3)ncn2)cc1
i,CC(C)NC(=O)CCn1c(=O)c2cc(Cl)ccc2n2c(SCc3ccccc3)nnc12
i,COc1cc2nc(=S)n3[nH]c(C(C)Oc4ccc(Br)cc4)nc3c2cc1OC (centres undefined)
i,O=C(Nc1c(F)cccc1F)N1CCC(COCc2ccc(Cl)cc2)CC1
i,Cc1ccccc1C(=O)NNC(=O)COc1ccc2oc(C)c(C(=O)OC(C)C)c2c1
i,Cc1cc2nn(CC(=O)NC3CCCCC3)c(=O)n2c(Nc2ccc(F)c(C)c2)n1
i,COC(=O)c1ccc(C(=O)Nc2cc(C)nn2-c2nc3ccc(OC)cc3s2)cc1

For convenience, some entries already given:
GIRK2 act,compound
i,Cn1cc(CC(=O)Nc2ccc(CC(=O)NCC(F)(F)F)cc2)c2ccccc21
i,O=C(Nc1nnc(Cc2ccccc2)o1)c1cnccn1
i,O=C(C1CCCCC1)N1CCN(c2ncnc3c2nnn3-c2ccc(Cl)cc2)CC1
i,COc1ccc(NC(=O)CSc2nnc(-c3cccnc3)o2)c(OC)c1
i,Cc1noc(C2CN(C(=O)c3cc(-c4ccc(F)cc4)nn3C)C2)n1
i,Cc1c(Cl)ccc2c(=O)c3c([nH]c12)CCN(CC(=O)Nc1ccc(F)c(Cl)c1)C3
i,Cc1c(Cl)cccc1NC(=O)Cn1cccc(S(=O)(=O)N2CCCC2)c1=O

New compounds follow
GIRK2 act,compound
i,CS(=O)(=O)c1ccccc1C(=O)N(CCN1CCOCC1)c1nc2ccc(Cl)cc2s1
i,Cn1c(C(F)(F)F)nn(CCNS(=O)(=O)c2ccc(Br)s2)c1=O
i,O=C1CCCC(=O)N1CCS(=O)(=O)N1CC(c2nc(-c3ncccn3)no2)C1
i,COc1ccc(OC)c(NC(=O)Cn2cnc3c(-c4ccc(Cl)cc4)csc3c2=O)c1
i,COc1ccc(N2CCN(C(CNC(=O)CC(C)(C)C)c3ccco3)CC2)cc1 (centres undefined)
i,COc1ccc(S(=O)(=O)c2cnc(N3CCc4ccccc4C3)nc2N)cc1Cl
i,Cc1ccc(Cl)cc1NC(=O)Cn1nc2c3c4c(sc3ncn2c1=O)CCCCC4
i,O=C1CCCC(=O)N1CCS(=O)(=O)N1CC(c2nc(C3CC3)no2)C1
i,COc1cccc(OC)c1C(=O)NCC(c1cccn1C)N1CCc2ccccc2C1 (centres undefined)
i,CCCCCCCOC(=O)C(C#N)c1nc2ccccc2nc1N1CCCC1 (centres undefined)
i,COc1cccc(NC(=O)Cn2cnc3c(c2=O)CCCC3)c1
i,CC(C)Nc1ncc2cc(Oc3ccc(F)cc3F)c(=O)n(C)c2n1
i,CCCCN(Cc1ccccc1)C(=O)C(=O)c1c[nH]c2ccccc12
i,COc1ccc(C(=O)/C=C/c2cc(OC)c(OC)c(OC)c2)c(OC)c1
i,CCCCNC(=O)c1cccc(-n2ccnc2SCC(=O)Nc2ccccc2C(=O)OC)c1
i,NC(=O)c1c(NC(=O)C2CCN(S(=O)(=O)c3ccc(Cl)cc3)CC2)sc2c1CCC2
i,O=C(O)CC1OC(=O)c2ccccc21 (centres undefined)
i,Cc1nc(-c2ccco2)sc1CNS(=O)(=O)Cc1ccccc1
i,CC(C)c1cc(/C=C(\C#N)C(=O)NCCCc2ccccc2)cc(C(C)C)c1O
i,CCCN(Cc1ccsc1)C(=O)NC12CC3CC(CC(C3)C1)C2
i,O=S(=O)(c1ccc2c(c1)CCCC2)N(CC(F)(F)F)C1CCOCC1
i,CCOc1ccccc1-n1c(C)cn2c3c(=O)n(CCCc4ccccc4)c(=O)n(C)c3nc12
i,O=C(NCc1nn(C2CCCC2)c(=O)c2ccccc12)Nc1ccccc1Cl
i,COc1cccc2cc(C(=O)NC(C)Cc3cccs3)c(=O)oc12 (centres undefined)
i,Cc1cc(SCC(=O)Nc2ccc(O)cc2)n2nc(C)c(-c3ccc(Cl)cc3)c2n1
i,CCc1ccccc1NCCn1c(C)cn2c3c(=O)n(C)c(=O)n(C)c3nc12
i,O=S(=O)(c1ccc(F)c(Cl)c1)N(Cc1ccoc1)Cc1cccs1
i,O=C(NCC(F)(F)F)C1CCN(S(=O)(=O)c2cccnc2)CC1
i,COc1ccc(C2CC3C4NN=C(SCC(=O)Nc5cc(OC)cc(OC)c5)N4C=CN3N2)cc1 (centres undefined)
i,COc1ccccc1COc1cc(NC(=O)C2CCCN(c3cc(-n4ccnc4)ncn3)C2)ncn1 (centres undefined)
i,CC(C)NC(=O)Cn1cc(-c2ccccc2)c(N(C)C)n1
i,O=c1[nH]c2nccnc2c(=O)n1CCc1ccccc1
i,CSCCC(C)(O)CNC(=O)c1cc(C)on1 (centres undefined)
i,O=C(c1cc(-c2ccccc2)on1)N1CCN(Cc2ccsc2)CC1
i,COc1cc(C(=O)NCCOc2ccc3c(c2)OCO3)c([N+](=O)[O-])cc1OC
i,COc1ccc(Cl)cc1S(=O)(=O)NCCC(O)c1ccc2c(c1)OCO2 (centres undefined)
i,Cc1ccc2[nH]c3c(=O)n(CC(=O)NC(C)C)cnc3c2c1
